NOMO-1 viab = STK33 inhibitor candidate reducing NOMO-1 cell viability; 37,000 tested, 7.5% active; inhibition, % (no concentration beside the values); NOMO-1 AML viability, CellTiter-Glo luminescence, 72 h;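 active = most replicates above 80%; inconclusive = exactly half above 80%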;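 note: wells of about 30 µL received 25 nL stock; 0% = median of vehicle wells and 100% = reference inhibitor level; the first replicate is given; inactives centre near 10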
The depositor's hits bear a star; ? = inconclusive. An excerpt (hit frequency here may not be typical).

SMILES | NOMO-1 viab
C[C@@H]1CCCCO[C@@H](CN(C)C(=O)Nc2ccccc2)[C@@H](C)CN([C@H](C)CO)C(=O)c2cc(NC(=O)NC3CCCCC3)ccc2O1 | 6.1
Cc1cc(C)c(S(=O)(=O)N(C)CC(=O)O)c(C)c1 | -6.2
COc1ccc(S(=O)(=O)Nc2cccc3c2O[C@@H](CN(C)C(=O)Nc2ccc4c(c2)OCO4)[C@H](C)CN([C@@H](C)CO)C3=O)cc1 | 21.0
C[C@@H]1CN([C@H](C)CO)C(=O)c2cc(NC(=O)Cc3ccccc3)ccc2O[C@@H]1CN(C)CC1CCCCC1 | 25.7
C[C@@H]1CCCCO[C@H](CN(C)Cc2ccc(C(=O)O)cc2)[C@@H](C)CN([C@H](C)CO)C(=O)c2cc(NC(=O)Nc3ccc(C(F)(F)F)cc3)ccc2O1 | -10.3
Cn1c(=O)c2c(nc(NCC(O)c3ccccc3)n2Cc2ccc(F)cc2)n(C)c1=O (configuration not stated) | 95.4*
C[C@@H]1CN([C@H](C)CO)C(=O)c2cccc(NC(=O)Nc3ccccc3)c2O[C@@H]1CN(C)Cc1ccc(Oc2ccccc2)cc1 | 31.7
C[C@@H]1CN([C@H](C)CO)C(=O)Cc2cc(NS(=O)(=O)c3cccs3)ccc2O[C@H]1CN(C)S(=O)(=O)c1ccccc1 | -2.5
O=C(Nc1cc2ccccc2oc1=O)c1ccc(Cl)cc1 | 61.5
Cc1noc(C)c1NC(=O)Nc1ccc2c(c1)C(=O)N([C@H](C)CO)C[C@H](C)[C@@H](CN(C)C(=O)Nc1c(C)noc1C)OCCCC[C@@H](C)O2 | 33.7
Cc1cc(OCC(=O)NCc2ccccn2)c(C)cc1Br | 23.2
C[C@H](CO)N1C[C@H](C)[C@H](CN(C)Cc2ccc(Cl)c(Cl)c2)Oc2ccc(NC(=O)CCN3CCOCC3)cc2C1=O | -21.7
C[C@H]1CN([C@@H](C)CO)C(=O)c2cc(NS(=O)(=O)c3ccccc3)ccc2O[C@@H]1CN(C)CC1CCCCC1 | 11.7
Cc1noc(C)c1NC(=O)N(C)C[C@@H]1Oc2c(NS(=O)(=O)c3cn(C)cn3)cccc2C(=O)N([C@@H](C)CO)C[C@@H]1C | 9.4
C[C@@H]1CN([C@@H](C)CO)C(=O)c2cccc(NC(=O)C3CC3)c2O[C@H]1CN(C)C(=O)Nc1ccc2c(c1)OCO2 | -0.7
COC(=O)c1cc(OC)c(OC)cc1NC(=O)COc1ccccc1F | -21.5
C[C@H](CO)N1C[C@H](C)[C@@H](CN(C)Cc2ccc(Cl)c(Cl)c2)Oc2c(NC(=O)Nc3ccc4c(c3)OCO4)cccc2C1=O | 81.6*
C[C@@H]1CN([C@H](C)CO)C(=O)Cc2cc(NS(=O)(=O)c3cccs3)ccc2O[C@H]1CN(C)S(=O)(=O)c1cccs1 | -15.2
CCn1c(SCC(=O)c2ccc(Br)cc2)nnc1-c1ccco1 | -33.2
COc1cc(Cc2nccc3cc(OC)c(OC)cc23)c(NC(=O)c2cc(F)c(F)cc2Cl)cc1OC | 15.8
COC(=O)c1ccc(NC(=O)CSc2nc3ccccc3c(=O)n2-c2ccc(C)cc2)cc1 | 47.6
C[C@H](CO)N1C[C@H](C)[C@H](CN(C)Cc2ccc3c(c2)OCO3)Oc2ccc(NC(=O)CCC(F)(F)F)cc2CC1=O | 4.5
C[C@H](CO)N1C[C@H](C)[C@H](CN(C)S(=O)(=O)c2ccc(Cl)cc2)Oc2ccc(NC(=O)c3ccncc3)cc2CC1=O | 19.4
Oc1ccccc1-c1cc(-c2ccc3c(c2)OCO3)cc(-c2ccccc2)n1 | 32.5
Cc1noc(C)c1S(=O)(=O)N(C)C[C@H]1Oc2ccc(NC(=O)Nc3ccccc3)cc2CC(=O)N([C@@H](C)CO)C[C@H]1C | 8.5
CC(=O)Nc1ccc(C(=O)CSc2ncn(-c3ccccc3)n2)cc1 | 20.8
FC(F)(F)c1ncncc1-c1nnnn1-c1ccccc1 | -0.1
C[C@H]1CN([C@@H](C)CO)C(=O)c2cccc(NC(=O)c3nc4ccccc4s3)c2O[C@@H]1CN(C)Cc1ccc(-c2ccccc2)cc1 | ?
C[C@H](CO)N1C[C@H](C)[C@H](CN(C)S(=O)(=O)c2ccccc2)Oc2ccc(NC(=O)CCCCCC(=O)Nc3ccccc3N)cc2C1=O | 11.8
Cc1cc(OCC(=O)Nc2ccccc2C(N)=O)cc(C)c1Br | -3.7
COc1ccc(S(=O)(=O)Nc2ccc3c(c2)CC(=O)N([C@@H](C)CO)C[C@H](C)[C@H](CN(C)Cc2ccc(-c4ccccc4)cc2)O3)cc1 | 89.8*
CCn1c(SCC(=O)O)nc2sc3c(c2c1=O)CC(C)(C)OC3 | -8.1
CCOC(=O)C1CCCN(S(=O)(=O)c2ccc(Cl)c(Cl)c2OC)C1 (configuration not stated) | 10.1
C[C@@H]1CN([C@H](C)CO)C(=O)c2cccc(NS(=O)(=O)c3cn(C)cn3)c2O[C@@H]1CN(C)C(=O)NC1CCCCC1 | -19.4
COc1ccc(NC(=O)Nc2ccc3c(c2)CC(=O)N([C@H](C)CO)C[C@H](C)[C@H](CN(C)S(=O)(=O)c2ccc(C)cc2)O3)cc1 | 121.6*
C[C@H]1CN([C@@H](C)CO)C(=O)Cc2cc(NC(=O)CCCCCC(=O)Nc3ccccc3N)ccc2O[C@H]1CN(C)S(=O)(=O)c1cccs1 | 25.8
C[C@H]1CN([C@@H](C)CO)C(=O)c2cc(NC(=O)Cc3ccccc3)ccc2O[C@H]1CN(C)Cc1ccc(Oc2ccccc2)cc1 | -1.6
C[C@H](CO)N1C[C@H](C)[C@H](CN(C)Cc2ccncc2)Oc2c(NC(=O)C3CCOCC3)cccc2C1=O | 18.6
C[C@H](CO)N1C[C@H](C)[C@H](CN(C)C(=O)Nc2cccc3ccccc23)Oc2c(NC(=O)Nc3ccc4c(c3)OCO4)cccc2C1=O | 40.5
COc1ccc(C(=O)CCC(=O)Nc2ccc(Br)cc2)cc1 | 3.1
C[C@H]1CN([C@@H](C)CO)C(=O)Cc2cc(NC(=O)Nc3cccc4ccccc34)ccc2O[C@@H]1CN(C)C(=O)Nc1ccccc1 | -20.6
C[C@H](CO)N1C[C@H](C)[C@H](CN(C)C)Oc2c(NC(=O)NC3CCCCC3)cccc2C1=O | -2.9
COc1ccc(-c2cc(=O)c3c(O)c(OC)c(O[C@H]4O[C@H](CO[C@@H]5O[C@@H](C)[C@H](O)[C@@H](O)[C@H]5O)[C@@H](O)[C@H](O)[C@H]4O)cc3o2)cc1 | -0.2
C[C@@H]1CN([C@@H](C)CO)C(=O)c2cc(NC(=O)Nc3ccc(C(F)(F)F)cc3)ccc2O[C@@H]1CN(C)C | 22.5
O=C(O)CCC(=O)Nc1cccc(F)c1 | -4.7

Quoted at random: 2 records from the list
SMILES | NOMO-1 viab
C[C@@H]1CN([C@@H](C)CO)C(=O)c2cc(NC(=O)Nc3ccc(C(F)(F)F)cc3)ccc2O[C@@H]1CN(C)C | 22.5
C[C@@H]1CN([C@H](C)CO)C(=O)c2cccc(NS(=O)(=O)c3cn(C)cn3)c2O[C@@H]1CN(C)C(=O)NC1CCCCC1 | -19.4

More compounds
SMILES | NOMO-1 viab
C[C@H]1CN([C@@H](C)CO)C(=O)c2cccc(NC(=O)NC3CCCCC3)c2O[C@@H]1CN(C)C(=O)Nc1ccc(C(F)(F)F)cc1 | 100.0*
CC(C)NC(=O)Nc1cccc2c1O[C@@H](CN(C)Cc1ccncc1)[C@@H](C)CN([C@H](C)CO)C2=O | 8.7
Cc1ccccc1C(=O)NCCc1nc2ccccc2[nH]1 | -4.9
C[C@H](CO)N1C[C@H](C)[C@@H](CN(C)C(=O)Nc2ccc(C(F)(F)F)cc2)Oc2c(NC(=O)c3nc4ccccc4s3)cccc2C1=O | 13.1
C[C@@H]1CN([C@@H](C)CO)C(=O)c2cc(NS(=O)(=O)c3ccccc3)ccc2O[C@@H]1CN(C)S(=O)(=O)c1ccc(F)cc1 | 32.5
Cc1ccc(Cl)c(OCC(=O)NCc2cccnc2)c1 | 19.2
CCn1c(SCC(=O)Nc2c(Cl)cc(Cl)cc2Cl)nnc1-c1ccccc1Cl | -7.8
O=C(COc1ccc(Cl)cc1Cl)Nc1cc(Cl)ccc1C(=O)O | 17.8
CNC[C@H]1Oc2ccc(NS(=O)(=O)c3ccccc3)cc2CC(=O)N([C@H](C)CO)C[C@H]1C | -10.0
C[C@@H]1CN([C@@H](C)CO)C(=O)c2cccc(NS(=O)(=O)c3ccc(Cl)cc3)c2O[C@H]1CN(C)S(=O)(=O)c1ccc(Cl)cc1 | 22.9
O=[N+]([O-])c1ccc(S(=O)(=O)N2CCN(C(=S)NCc3ccco3)CC2)cc1 | 33.7
Cc1ccc(S(=O)(=O)Nc2ccc3c(c2)C(=O)N([C@H](C)CO)C[C@H](C)[C@H](CN(C)C(=O)Nc2ccc4c(c2)OCO4)O3)cc1 | 19.4
Cc1ccccc1NC(=O)c1ccc(C)c(S(=O)(=O)Nc2cccc(C(=O)O)c2)c1 | -18.7
Cc1cc2nn(-c3ccc(Cl)cc3)nc2cc1NC(=O)COc1ccc([N+](=O)[O-])cc1 | 13.3
Cc1ccc(NC(=O)CN(C)S(=O)(=O)c2ccccc2)c(C)c1 | -22.1

Reprinted from the part before: 7 compounds, then new ones.
SMILES | NOMO-1 viab
CNC[C@H]1Oc2ccc(NS(=O)(=O)c3ccccc3)cc2CC(=O)N([C@H](C)CO)C[C@H]1C | -10.0
C[C@@H]1CN([C@@H](C)CO)C(=O)c2cccc(NS(=O)(=O)c3ccc(Cl)cc3)c2O[C@H]1CN(C)S(=O)(=O)c1ccc(Cl)cc1 | 22.9
O=[N+]([O-])c1ccc(S(=O)(=O)N2CCN(C(=S)NCc3ccco3)CC2)cc1 | 33.7
Cc1ccc(S(=O)(=O)Nc2ccc3c(c2)C(=O)N([C@H](C)CO)C[C@H](C)[C@H](CN(C)C(=O)Nc2ccc4c(c2)OCO4)O3)cc1 | 19.4
Cc1ccccc1NC(=O)c1ccc(C)c(S(=O)(=O)Nc2cccc(C(=O)O)c2)c1 | -18.7
Cc1cc2nn(-c3ccc(Cl)cc3)nc2cc1NC(=O)COc1ccc([N+](=O)[O-])cc1 | 13.3
Cc1ccc(NC(=O)CN(C)S(=O)(=O)c2ccccc2)c(C)c1 | -22.1
COc1ccc(-c2nnc(SCC(=O)O)n2-c2ccccc2)cc1OC | -16.5
CC(C)NC(=O)N(C)C[C@@H]1Oc2ccc(NC(=O)CCCCCC(=O)Nc3ccccc3N)cc2C(=O)N([C@@H](C)CO)C[C@H]1C | 32.6
Cc1nn(C(C)C(=O)Nc2ccccc2C(F)(F)F)c(C)c1[N+](=O)[O-] (configuration not stated) | 26.3
C[C@H]1CN([C@@H](C)CO)C(=O)c2cc(NC(=O)CCN3CCOCC3)ccc2O[C@H]1CN(C)Cc1ccc(C(F)(F)F)cc1 | 19.5
COc1ccc(NC(=O)N(C)C[C@H]2Oc3ccc(NC(=O)NC4CCCCC4)cc3C(=O)N([C@@H](C)CO)C[C@@H]2C)cc1 | 11.4
C[C@@H]1CN([C@H](C)CO)C(=O)Cc2cc(NS(=O)(=O)c3ccc(Cl)cc3)ccc2O[C@H]1CN(C)Cc1ccc(Cl)c(Cl)c1 | 104.6*
COc1ccc(C(=C2C(=O)Nc3ccccc32)c2ccc(OC)cc2)cc1 | 15.3
CNC[C@@H]1Oc2ccc(NS(=O)(=O)c3ccccc3)cc2C(=O)N([C@H](C)CO)C[C@@H]1C | 2.8
CCc1cc2c(SCC(=O)N3CCc4ccccc43)ncnc2s1 | 18.3
COc1ccc(NC(=O)CSc2nnc(C)c(=O)[nH]2)cc1Cl | 7.0
C[C@H]1CN([C@@H](C)CO)C(=O)c2cc(NC(=O)Cc3ccccc3)ccc2O[C@@H]1CN(C)C(=O)Nc1ccc2c(c1)OCO2 | 25.6
O=C(COC(=O)c1ccc(Cl)cc1NC(=O)c1ccc(Cl)cc1)c1ccccc1 | 27.8
Nc1ncnc(NCCCN2CCOCC2)c1[N+](=O)[O-] | 25.4
COc1ccc(NC(=O)N(C)C[C@H]2Oc3c(NS(=O)(=O)c4ccccc4)cccc3C(=O)N([C@@H](C)CO)C[C@@H]2C)cc1 | 1.0
COc1ccc(-c2nnc(SCC(=O)Nc3cccc(SC)c3)n2C)cc1 | -20.0
C[C@@H]1CN([C@H](C)CO)C(=O)Cc2cc(NC(=O)CCN3CCOCC3)ccc2O[C@@H]1CN(C)S(=O)(=O)c1ccccc1 | 15.8
Cc1noc(C)c1NC(=O)Nc1ccc2c(c1)C(=O)N([C@H](C)CO)C[C@H](C)[C@H](CN(C)C(=O)Nc1ccc(C(F)(F)F)cc1)OCCCC[C@@H](C)O2 | 32.3
Cn1c(-c2ccc3c(c2)OCO3)cc(=O)c2ccccc21 | 10.1
O=C(CNS(=O)(=O)c1cc(Cl)ccc1Cl)Nc1ccc(Oc2ccccc2)cc1 | 18.1
Cc1noc(C)c1S(=O)(=O)Nc1ccc2c(c1)C(=O)N([C@@H](C)CO)C[C@H](C)[C@@H](CN(C)S(=O)(=O)c1ccc(F)cc1)O2 | 15.4
C[C@H]1CN([C@@H](C)CO)C(=O)c2cc(NS(=O)(=O)c3ccc(Cl)cc3)ccc2O[C@H]1CN(C)C(=O)NC1CCCCC1 | 9.1
COc1ccc(S(=O)(=O)N(C)C[C@@H]2Oc3c(NC(=O)Nc4ccc5c(c4)OCO5)cccc3C(=O)N([C@@H](C)CO)C[C@@H]2C)cc1 | -4.1
C[C@@H]1CN([C@@H](C)CO)C(=O)c2cccc(NC(=O)c3ccncc3)c2O[C@@H]1CN(C)Cc1ccncc1 | 3.4
COc1ccc(NC(=O)C(C)Oc2ccccc2)cc1NC(=O)c1ccco1 (configuration not stated) | -14.4
C[C@@H]1CN([C@@H](C)CO)C(=O)c2cc(NS(=O)(=O)c3ccc(Cl)cc3)ccc2O[C@@H]1CN(C)Cc1ccc2c(c1)OCO2 | 30.1
COCCC(=O)C1=CSC2=C(C(=O)CC(C)(C)C2)C1c1ccncc1 (configuration not stated) | 45.6
O=C(c1cc2ccccc2oc1=O)N(Cc1ccc(F)cc1)Cc1ccco1 | -0.1
COc1cc2c(c(N)c1OC)C(=O)/C(=C/c1cc(C)c(O)c(C)c1)C2 | 97.1*
O=C(CNS(=O)(=O)c1ccccc1)Nc1ccc(Br)cc1F | 4.2
C[C@H](CO)N1C[C@H](C)[C@H](CN(C)S(=O)(=O)c2ccc(Cl)cc2)Oc2c(NC(=O)c3ccc(-c4nccs4)cc3)cccc2C1=O | 84.0*
